# D2 agonist – agonists of human D2 dopamine receptor (beta-arrestin); P14416; DiscoveRx PathHunter D2 beta-arrestin, luminescence, 90 min; 100% = 57 uM dopamine signal; activation, % (no concentration beside the values); actives 0.084% (n = 360,000); in the data active = activation above about 40%; inconclusive = about 15% to 40%; inactive = below about 15%; also: compound concentration not given in the record; the text of the record calls up to 30% inactive
# Target sequence (P14416 whole entry, looked up): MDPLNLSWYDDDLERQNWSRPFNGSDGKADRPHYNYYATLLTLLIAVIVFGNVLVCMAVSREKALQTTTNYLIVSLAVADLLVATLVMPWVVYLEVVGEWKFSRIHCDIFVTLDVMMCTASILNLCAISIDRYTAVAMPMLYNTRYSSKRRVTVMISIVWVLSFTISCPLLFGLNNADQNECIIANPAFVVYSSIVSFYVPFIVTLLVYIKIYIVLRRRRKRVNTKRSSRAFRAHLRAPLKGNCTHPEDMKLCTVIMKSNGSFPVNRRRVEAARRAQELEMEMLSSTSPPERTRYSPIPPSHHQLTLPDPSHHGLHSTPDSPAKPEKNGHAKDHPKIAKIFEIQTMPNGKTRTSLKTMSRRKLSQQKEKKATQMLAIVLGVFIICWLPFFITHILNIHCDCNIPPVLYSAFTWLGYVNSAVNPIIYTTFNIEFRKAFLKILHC
#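 DiscoveRx PathHunter D2 beta-arrestin cells (2,100/well) attached overnight, then compound-stimulated 90 min at 37 C in HBSS/10 mM HEPES/0.1% Tween-20 buffer; beta-galactosidase complementation read by luminescence after 1 h at ambient temperature. Dopamine 57 uM final (EC100) as control.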
# Six1-Eya2 blk – inhibitors of human Six1/Eya2 interaction. Q15475+O00167. AlphaScreen GST-Six1/His-Eya2 binding, biochemical; hits give low values; control for the full effect not named in the record. actives 0.56% (n = 360,000). activity change, % (no concentration beside the values); in the data active = activity change below about -65%; inconclusive = about -30% to -65%; inactive = above about -30%; also: % is scaled to controls: 0 for no effect and ±100 for the full control effect; compound concentration not given in the record
#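 Six1/Eya2 binding was read as AlphaScreen signal after compounds were pinned into GST-Six1 plus His-tagged Eya2 (5X stock 250/500 nM) in pH 8.0 Tris/NaCl/TCEP buffer, beads added, then incubated 1 h, 37 C, dark.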
# TRPML1 ag – agonists of human TRPML1 channel; actives 0.12% (n = 410,000); activation, % (test concentration not listed); TRPML1-expressing cells, Ca2+ dye fluorescence, FDSS; host cell line not named in the record; reference of the full effect not given here; Q9GZU1; AID 624414; in the data active = activation above about 50%; inconclusive = about 30% to 50%; inactive = below about 30%; also: 0% is about no effect; the text of the record puts the active cut at 80%
# Target sequence (Q9GZU1 whole entry, looked up): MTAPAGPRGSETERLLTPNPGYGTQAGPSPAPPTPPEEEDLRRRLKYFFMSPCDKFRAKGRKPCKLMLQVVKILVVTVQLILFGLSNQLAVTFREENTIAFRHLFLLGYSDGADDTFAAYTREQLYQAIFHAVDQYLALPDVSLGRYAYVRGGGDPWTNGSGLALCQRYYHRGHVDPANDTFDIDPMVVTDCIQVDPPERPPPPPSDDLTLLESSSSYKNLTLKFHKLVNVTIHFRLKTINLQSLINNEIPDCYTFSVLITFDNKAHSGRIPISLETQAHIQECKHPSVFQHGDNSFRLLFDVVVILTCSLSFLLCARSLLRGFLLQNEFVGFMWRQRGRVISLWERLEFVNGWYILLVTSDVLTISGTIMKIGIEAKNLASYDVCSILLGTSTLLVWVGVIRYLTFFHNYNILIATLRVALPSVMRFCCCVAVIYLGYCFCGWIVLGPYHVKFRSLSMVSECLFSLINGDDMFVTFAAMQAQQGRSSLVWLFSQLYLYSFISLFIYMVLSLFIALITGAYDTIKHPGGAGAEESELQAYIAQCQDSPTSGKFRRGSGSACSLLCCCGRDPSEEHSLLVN
#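 Tetracycline-induced TRPML1-DL cells are seeded and incubated overnight before loading with a no-wash Ca2+ dye and quencher. Agonist activity is taken from the 110 s fluorescence read following compound pin-transfer on an FDSS, before EC80 54-4 challenge.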
# D2 potentiator – potentiates the human D2 dopamine receptor allosterically | DiscoveRx D2 beta-arrestin cells, luminescence, 90 min; 100% = 57 uM dopamine signal | P14416 | AID 624464 | actives 0.23% (n = 360,000) | potentiation, % (test concentration not listed); active = potentiation of 50% or more; inconclusive = 30% to 50%; inactive = 30% or less;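 also: compound concentration not given in the record; tested on top of an EC20 dose of dopamine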
#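 PathHunter beta-arrestin assay in DiscoveRx D2 cells. Compounds were added with an EC20 of dopamine (50 nM final) for 90 min at 37 deg C. Luminescence was read 1 h after detection reagent, with 57 uM dopamine as the EC100 control.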
# TRPML1 inh – inhibitors of human TRPML1 channel; Q9GZU1; TRPML1-inducible cells, Ca2+ dye fluorescence, FDSS; hits give low values; inhibition of EC80 agonist-evoked calcium signal; activity change, negative = inhibition, % (no concentration beside the values); actives 0.02% (n = 390,000); AID 624415; in the data active means activity change below about -50%; inconclusive means about -30% to -50%; inactive means above about -30%;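 also: stimulus is agonist 54-4 at its EC80 concentration; % is scaled to controls: 0 for no effect and ±100 for the full control effect; compound concentration not given in the record; the text of the record puts the active cut at -80%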
#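 TRPML1-DL cells, Tet-induced overnight (~16 h, 37 °C) at 1,500 cells/well, were loaded with Ca8 no-wash dye plus quencher for 45-90 min at room temperature. Compounds were pinned during FDSS kinetic reading; agonist 54-4 at EC80 (4 uM final) then added.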
# PINK1 expr mod – PINK1 expression modulation; actives 0.2% (n = 410,000); Potency, µM (highest dose often 76.6 µM), for inactives: at the highest dose activation (PINK1 increase), usual class: activators; AID 624263; PINK1 immunofluorescence, high-content cytometry, 24 h; active = well fitted activation curve with a large enough effect; inconclusive = small, poorly fitted or top-dose-only effect; inactive = flat fitted curve, though single readings scatter; cell line not stated here;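 also: potency is read from the fitted curve at half-maximal effect; % of control where 0% means no effect; nearly all actives have a fitted effect of over 65% in size; a mitochondrial uncoupler was the plate control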
#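 Decision-based qHTS: stable cells, 24 h exposure to five compound concentrations, CCCP as control. Fixed cells stained for PINK1 plus nuclear, mitochondrial and cell markers, cytometer read.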
# * marks the source's active call; other numbers are inactive results; u = inconclusive; x = not tested or not shown; [ ] = remark or other dose.
SMILES,D2 agonist,Six1-Eya2 blk,TRPML1 ag,D2 potentiator,TRPML1 inh,PINK1 expr mod
Cc1sc2nc(CN3CCCCC3)nc(N3CCN(C(=O)c4ccco4)CC3)c2c1C,-2.8,-7,-0.4,-20,0,1.2%
CCOc1ccc(-c2nnc(-c3ccc(OC)cc3)o2)cc1,-4.3,-1,-1.2,-10,1,9.9%
CC(C(=O)c1ccccc1)C(O)c1ccccn1 (stereo unspecified),-3.2,0,-0.5,-2,-10,-1.2%
O=C(O)c1cccnc1Sc1ccc(Cl)cc1,2.0,-4,-0.6,2,-6,0.7%
Cc1cc([N+](=O)[O-])ccc1NC(=O)C(C)N1CCN(c2ccccn2)CC1 (stereo unspecified),-11,-17,-1.0,0,1,-2.3%
Cc1ccc(S(=O)(=O)N2c3ccccc3OCC2c2ccccc2)cc1 (stereo unspecified),-3.9,6,2.5,-5,82,7.5%
O=C(COc1ccccc1Cc1ccccc1)Nc1cccc(S(=O)(=O)N2CCOCC2)c1,2.8,6,2.7,2,7,-0.1%
CN(C)S(=O)(=O)N1CCN(S(=O)(=O)N(C)C)CC1,-2.0,7,-0.4,4,1,x
O=C(Cn1c(-c2ccccn2)nc2ccccc21)N/N=C/c1ccccn1,-1.7,-13,0.6,0,7,0.4%
COc1ccc(NS(=O)(=O)c2cccc(C(=O)Nc3ccccc3C(=O)O)c2)cc1,8.5,-7,1.8,7,14,0.7%
Cc1cccc(C(=O)N(Cc2nc3ccccc3c(=O)[nH]2)C2CCCCC2)c1,-2.6,-7,0.9,-3,-14,-0.6%
Cc1nn(CC(=O)Nc2ccc(F)cc2)c(=O)c2ccccc12,0.1,4,2.3,-12,-9,1.0%
COC(=O)c1cccc(NC(=O)Cc2nc(-c3ccccc3)sc2-c2ccc(C)cc2)c1,-1.5,7,-0.6,2,-1,13%
Cc1noc(C)c1CSc1ccc2ccccc2n1,-1.8,17,0.1,-6,2,-7.5%[38.3 µM]
O=C(CSc1ccc2ccccc2n1)c1ccc2c(c1)OCO2,-1.7,20,11,-9,7,-1.3%
O=C(CCC1CCCN(c2ncccn2)C1)NCc1ccc(F)c(F)c1 (stereo unspecified),0.0,4,-1.3,-4,-4,-0.3%
CCN(CC)c1ccc(S(=O)(=O)N2CCOCC2)cc1NC(=O)COC(=O)C1=COCCO1,4.4,1,0.5,5,0,2.2%
Cc1nc2scc(C)n2c(=O)c1S(=O)(=O)NC(C)c1ccccc1 (stereo unspecified),-3.5,5,0.3,-8,23,-1.1%
CC(C)COC(=O)NCC12C=CC(O1)C1C(=O)N(c3ccc(Cl)cc3)C(=O)C12 (stereo unspecified),-3.5,-6,0.0,-1,12,12%
COc1cc(OC)c(OC)cc1/C=N/NC(=S)NCC1CCCO1 (stereo unspecified),-5.5,-10,-0.7,-21,8,u
CC(C)C(c1nnnn1C1CCCC1)N1CCCc2ccccc21 (stereo unspecified),-0.7,-5,9.5,11,5,1.6%
O=C(O)c1ccc(S(=O)(=O)N(Cc2ccc(F)cc2)C2CCCCC2)cc1,-3.3,12,1.1,-5,4,-1.6%
NS(=O)(=O)c1ccc(NC(=O)COC(=O)c2cc3ccccc3cc2O)cc1,-1.4,-1,0.7,-15,-2,4.5%
COc1cccc(OC)c1C(=O)N1CCOCC1,-1.2,3,0.9,-7,-1,-1.6%[38.3 µM]
CCCc1cc(=O)n2[nH]c(-c3ccccc3)cc2n1,-3.2,-4,1.1,-23,-13,4.6%
CCOc1cc(C(=S)N2CCOCC2)ccc1OS(=O)(=O)c1ccc(Br)cc1,0.4,-8,-0.2,-4,-6,0.3%
O=C(Nc1ccc(COc2ccccc2)cc1)Oc1ccccc1N1CCOCC1,-1.0,0,-0.2,-5,-17,6.1%
COc1ccc(C(N)c2nccc3cc(OC)c(OC)cc23)cc1OC (stereo unspecified),4.8,-75*,-0.5,-1,-16,-0.3%
O=C(Nc1ccc(N2CCN(C(=O)c3ccco3)CC2)cc1)c1ccc([N+](=O)[O-])cc1Cl,4.8,-7,-0.6,-3,-4,1.0%
COc1ccc(N(CC(=O)NN=C2CCCCCCC2)S(=O)(=O)c2ccccc2)cc1,0.5,3,0.1,4,-7,-2.3%[38.3 µM]

# Structures above that have an aryl thioether with sulfur outside any ring:
SMILES,D2 agonist,Six1-Eya2 blk,TRPML1 ag,D2 potentiator,TRPML1 inh,PINK1 expr mod
O=C(O)c1cccnc1Sc1ccc(Cl)cc1,2.0,-4,-0.6,2,-6,0.7%
Cc1noc(C)c1CSc1ccc2ccccc2n1,-1.8,17,0.1,-6,2,-7.5%[38.3 µM]
O=C(CSc1ccc2ccccc2n1)c1ccc2c(c1)OCO2,-1.7,20,11,-9,7,-1.3%

# Continuation:
SMILES,D2 agonist,Six1-Eya2 blk,TRPML1 ag,D2 potentiator,TRPML1 inh,PINK1 expr mod
O=[N+]([O-])c1ccccc1S(=O)(=O)N1CCN(c2ccc(F)cc2)CC1,6.2,-2,0.3,-3,0,-0.3%
Cc1cccc(OCC(O)Cn2c(N3CCCCC3)nc3c2c(=O)n(C)c(=O)n3C)c1 (stereo unspecified),2.7,-1,0.5,0,-10,0.8%
O=C(NCc1ccccc1)/C(=C\c1ccc(O)cc1)NC(=O)c1ccco1,-3.2,12,0.3,-12,-5,8.2%
CCCCCNC(=O)CCn1c(=O)[nH]c2ccccc2c1=O,x,x,-0.5,x,-1,8.3%
CC(=O)c1cccc(NC(=O)[C@H]2O[C@@H]3OC(C)(C)O[C@@H]3[C@H]3OC(C)(C)O[C@H]32)c1,x,x,0.4,x,-13,0.3%
O=C(CC(Cl)(Cl)Cl)N1CCN(/[N+]([O-])=N/Oc2ccc([N+](=O)[O-])cc2[N+](=O)[O-])CC1,x,x,2.2,x,9,-0.3%
Cc1ccc(C(=O)N2CCN(C)CC2)cc1S(=O)(=O)N1CCCCCC1,-0.4,6,0.6,-6,14,-0.2%
COC(C[C@H](O)[C@@H](C)[C@H](O)COCc1ccccc1)OC,-1.4,23,-0.7,0,-1,-0.2%
COc1ccccc1-c1ocnc1C(=O)Nc1ccc(N2CCOCC2)cc1N1CCOCC1,-1.8,-14,-1.5,-7,-5,5.3%
CC(C)Sc1nc2c(c(=O)[nH]c(=O)n2C)n1CCc1ccccc1,-0.8,8,-0.3,4,4,3.0%

# Entries listed so far that have two or more sulfur atoms (three):
SMILES,D2 agonist,Six1-Eya2 blk,TRPML1 ag,D2 potentiator,TRPML1 inh,PINK1 expr mod
CN(C)S(=O)(=O)N1CCN(S(=O)(=O)N(C)C)CC1,-2.0,7,-0.4,4,1,x
Cc1nc2scc(C)n2c(=O)c1S(=O)(=O)NC(C)c1ccccc1 (stereo unspecified),-3.5,5,0.3,-8,23,-1.1%
CCOc1cc(C(=S)N2CCOCC2)ccc1OS(=O)(=O)c1ccc(Br)cc1,0.4,-8,-0.2,-4,-6,0.3%

# Following part.
SMILES,D2 agonist,Six1-Eya2 blk,TRPML1 ag,D2 potentiator,TRPML1 inh,PINK1 expr mod
COc1ccccc1N(Cc1ccccc1)S(=O)(=O)c1cccc(C(=O)Nc2ccccn2)c1,-1.4,-8,0.4,11,38,-0.2%
CCOCCCNC(=O)C1CCC(CNS(=O)(=O)c2ccc(OC)cc2)CC1 (stereo unspecified),9.1,5,0.2,6,5,-0.4%
CCOC(=O)C1(CC2CCCCO2)CCN(Cc2nc(-c3cccs3)oc2C)CC1 (stereo unspecified),-0.7,-11,1.1,-4,-20,8.3%
O=C(NCc1cccs1)c1ccc(CSc2nc3cccnc3n2Cc2ccccc2)cc1,x,x,-0.8,x,11,-2.1%
CCn1nc(NC(=O)c2cccnc2)c2cc3ccccc3nc21,-2.5,-7,-0.6,-12,-1,2.4%[38.3 µM]
Cc1ccc(Oc2c(C=O)c3ccccc3n2C)cc1,-1.3,4,1.7,-11,11,-0.8%
COc1ccccc1C(=O)Oc1cc(C)[nH]c(=O)c1[N+](=O)[O-],-3.0,11,-0.1,-6,3,-1.5%
CC(C)CCOc1ccc(C2(C)NC(=O)NC2=O)cc1 (stereo unspecified),0.7,0,x,2,x,-0.6%
CC(C)(C)Cc1c(-c2ccc(Br)cc2)nc2ccc(Br)cn12,-8.6,12,0.0,0,-1,40µM*
O=C(c1cc(C2CC2)nn1-c1ccccc1)N1CCN(S(=O)(=O)c2c(F)cccc2F)CC1,-0.7,-5,3.6,-29,-19,0.0%
C[C@H]1CN([C@@H](C)CO)C(=O)CCCn2nncc2CO[C@@H]1CN(C)C(=O)Nc1ccc(N2CCCCC2)cc1,-3.0,-1,-0.2,-3,4,-1.8%
CCCCCC(=O)Nc1ccc(C(=O)COC(=O)CN2C(=O)NC3(CCCC3)C2=O)cc1,-5.6,1,-0.1,-10,-26,-1.5%
CCNC(=S)N/N=C/c1ccccc1[N+](=O)[O-],0.7,-6,-0.6,-12,0,-0.3%
CCc1ccc2[nH]c(=O)c(CN(CC3CCCO3)C(=S)NCc3ccco3)cc2c1 (stereo unspecified),-1.4,-2,2.5,-10,-4,0.4%
COc1ccc(-c2nc3c4ccccc4n(CC(=O)N4CCN(c5ccc(F)cc5)CC4)c(=O)n3n2)cc1,x,x,1.2,x,-19,2.3%
CC(C)CCN1CCN(C2CCN(c3ccc4c(c3)OCO4)CC2)CC1CCO (stereo unspecified),1.6,-5,0.6,-4,-3,1.6%
COc1cccc(COC(=O)C2CCN(S(=O)(=O)c3ccc(F)cc3)CC2)c1OC,-2.3,2,0.3,20,20,3.0%
N#Cc1c(NCCN)nc(-c2ccco2)c2c1CCCC2,-2.5,2,1.1,-30,33,-2.6%
O=C(CSc1n[nH]c(Cc2ccccc2)n1)Nc1ccccc1Br,1.5,23,0.2,-2,-10,1.6%
O=c1cc(CSc2ccc(Cl)cc2)nc(N2CCOCC2)[nH]1,-4.3,-2,0.7,-10,29,0.4%
CC(=O)CSc1ncnc2sc3c(c12)CCC(C)C3 (stereo unspecified),-1.5,24,4.0,1,2,1.1%
COc1cc(OC)nc(C(NC(=O)C2CCN(Cc3ccc(N(C)C)cc3)CC2)c2ccc(F)cc2)n1 (stereo unspecified),-5.0,-12,-0.7,-18,x,0.6%
O=C(O)c1ccn(Cn2cnc3ccccc32)n1,-1.0,20,-0.8,-3,5,0.0%
COc1cccc(-c2nc(CS(=O)(=O)CC(=O)NCCC(C)C)c(C)o2)c1,-5.4,-8,-0.3,-7,-8,-2.0%
CC(=O)c1sc(NC(=O)c2ccccc2F)nc1-c1ccccc1,-1.8,6,2.9,-1,6,11%
O=C(Nc1ccccc1)N1CCC(C(=O)N2CCCC(C(F)(F)F)C2)CC1 (stereo unspecified),6.6,-7,0.2,-22,11,0.2%
COc1ccc(C/C(N)=N/OC(=O)c2ccco2)cc1OC,6.6,-1,0.0,u,41,0.1%
CN1OC[C@@H]2CN(C(=S)NCCc3ccccc3)[C@H](c3ccccc3Br)C[C@@H]21,-6.2,-1,-0.6,-5,x,-0.3%
CCOc1ccc(CN(C(=O)c2cccs2)C2CCS(=O)(=O)C2)cc1 (stereo unspecified),4.3,4,0.9,-13,17,0.8%
COc1cccc(-c2c(C(=O)N/N=C/c3ccsc3)nnn2-c2nonc2N)c1,-1.4,0,-0.4,-11,-22,-1.6%

# Compound activity: PubChem, National Center for Advancing Translational Sciences (NCATS)
